Assay outcomes as filed in PubChem.
VACV Venus inh = vaccinia inhibition (Venus reporter). AID 720580. Vaccinia virus Venus reporter expression, fluorescence. Potency, µM (top dose mostly 36.5 µM), for the others: at the highest dose activity change, negative = inhibition, most hits filed as inhibitors. 330,000 tested, 0.46% active; active means well fitted inhibition curve with a large enough effect; inconclusive means small, poorly fitted or top-dose-only effect; inactive means no such curve, though single readings can be large or run the other way; tested in A549 cells; further: nearly all actives have a fitted effect of over 30% in size; inactives centre near -10
Vaccinia mCherry = vaccinia inhibition (mCherry reporter) | 310,000 tested, 0.63% active | Vaccinia virus mCherry reporter infection, fluorescence; about a quarter of the inactives have no number | Potency, µM (series often up to 36.5 µM), inactives show at the top dose activity change, negative = inhibition, hits mostly inhibitors | AID 720579; active = well fitted inhibition curve with a large enough effect; inconclusive = small, poorly fitted or top-dose-only effect; inactive = no such curve, though single readings can be large or run the other way; tested in A549 cells; further: nearly all actives have a fitted effect of over 35% in size; inactives centre near -10
Starred values were filed as active, the others as inactive; i = inactive; ? = inconclusive; nt = no result given; & = joins results of further samples; [ ] = remark or other dose. On the % scale 0 is the no-effect control and ±100 the full control effect; potency means the concentration at half of the fitted maximal effect.

cpd	Molecule	VACV Venus inh	Vaccinia mCherry
1	CCCCCc1nnc(NC(=O)NS(=O)(=O)c2ccc(C)cc2)s1	-9%	-2%
2	Cc1c(/C=N\NC(=O)C2COc3ccccc3O2)c2ccccc2n1C (configuration not stated)	?	-21%
3	CC1(C(=O)NS(=O)(=O)c2ccccc2Cl)CCN1C(=O)CC1CCCCC1 (configuration not stated)	3%	i
4	COc1ccc2c(c1)c(C(=O)CN1CCC(C(N)=O)CC1)c(C)n2C	-10%	-16%
5	CCN(CC)S(=O)(=O)c1ccc(NC(=O)CN(c2cccc(C)c2)S(C)(=O)=O)cc1	-19%	-26%
6	O=[N+]([O-])c1ccc2cccnc2c1	-1%	i
7	CCOc1ccc(OCC)c(Nc2ccc3cc(S(=O)(=O)N4CCCC4)ccc3n2)c1	-25%	-27%
8	CCOC(=O)[C@@H]1[C@H]2COc3ccccc3[C@@H]2N2C(=O)N(c3cccc(F)c3)C(=O)[C@@]12C	-15%	-3%
9	CC1=C/C(=N\OS(=O)(=O)c2ccccc2)C(C)=CC1=O	-26%	?
10	Cc1cccc(OCCn2c(SCC(N)=O)nc3ccccc32)c1	1%	-11%
11	O=C(N/C(=N\O)c1ccccc1)Nc1ccc(Cl)cc1	8%	nt
12	COc1ccc(CNC(=O)CCC2N=C3c4ccccc4N=C(SCc4ccc(F)cc4)N3C2=O)cc1 (configuration not stated)	-1%	-20%
13	COc1ccc(-c2csc(NC(C)c3nc4cc(Cl)c(Cl)cc4n3CCOCCO)n2)cc1 (configuration not stated)	-22%	?
14	Cc1c(N)cc(N)cc1C(=O)O	8%	i
15	C[C@@H](O)C#Cc1ccc2c(c1)O[C@H](CN(C)C(=O)Nc1ccccc1)[C@@H](C)CN([C@@H](C)CO)S2(=O)=O	-6%	i
16	CCCCc1nc2ccccc2c(N)c1CCC (tested in a mixture with another compound)	-26%	?
17	Cc1cccc(C)c1-n1nnnc1C(CCc1ccccc1)N1CCN(C/C=C/c2ccccc2)CC1 (configuration not stated)	-3%	i
18	COC(=O)C1=C(c2ccc(OC(F)(F)F)cc2)C[C@@H]2CC[C@H]1N2C(=O)NCCOc1ccc(OC)cc1	?	?
19	O=C(CSc1nnc2n1CCCN2)c1ccc([N+](=O)[O-])cc1	20%	?
20	CSc1ccc(-c2ccc(C(=O)NCC3CCCO3)c(N3CCC(O)CC3)n2)cc1 (configuration not stated)	5%	-12%
21	Cc1ccc2c(CC(=O)N3CCOc4ccc(CN5C[C@@H](C)O[C@@H](C)C5)cc4C3)cc(=O)oc2c1	-11%	-6%
22	COc1ccc(CNC(=O)CCCc2cn(C)c3ccccc23)c(OC)c1	-4%	-13%
23	Cc1c(CCC(=O)NC2CC2)c(=O)oc2c(C)c(O)ccc12	2%	3%
24	O=C(CSc1nc2ccccc2o1)Nc1nncs1	-15%	nt
25	[N-]=[N+]=N[C@@H](CCN1CC[C@H](NC(=O)OCc2ccccc2)CCC1=O)c1ccccc1	-20%&-23%	-4%&-1%
26	CCc1nc2ccc(C(=O)N3CCN(S(=O)(=O)CC)CC3)cn2c1N(CC)CCN(C)C	7%	i
27	CCN(CC)CCCN(C(=O)Cn1nnc(-c2ccc(OC)c(OC)c2)n1)C(C(=O)NC(C)(C)C)c1ccc(F)cc1 (configuration not stated)	-12%	0%
28	Cc1cc(OCC(=O)N2CCCN(C)CC2)ccc1Cl	-7%	i
29	COc1ccc(Cc2nc3c4c(ncn3n2)Oc2ccc3ccccc3c2C4c2ccc(OC)c(OC)c2)cc1 (configuration not stated)	-12%	i
30	COc1ccc(-n2c(SCC(=O)N3CCCCC3)nc(O)cc2=O)cc1	-1%	-10%
31	CCC(=O)Nc1ccc(NC(=S)NC(=O)c2cc3ccccc3o2)cc1	-1%	-9%
32	CCOC(=O)c1cccc(NC(=O)NCc2ccc3c(c2)CCN3C(=O)CC)c1	2%	-14%
33	Cc1cc(C)c(C(=O)CSC2=NC(N)=C(C#N)C3(CCCCC3)C2C(N)=O)cc1C (configuration not stated)	-14%	-18%
34	CC(C)c1ccc(CCNC(=O)CCNC(=O)c2ccc(Br)cc2)cc1	-13%	-3%
35	COc1cc(-c2nnc(NC(=O)C3=COCCO3)o2)cc(OC)c1OC	-5%	-14%
36	COC(=O)c1ccc(S(=O)(=O)N2CCC(O)CC2)n1C	-12%	i
37	COc1ccccc1CNC(=O)CCNS(=O)(=O)c1cccc2nsnc12	-6%&-6%	?
38	CC(=O)c1ccc([N+](C)(C)C)cc1	-7%	6%
39	CCN1C(=O)/C(=C\c2nc3ccccc3c(=O)n2-c2ccccc2)c2ccccc21	-9%	-26%
40	CCOC(=O)CNC(=O)N1CCCC(CNS(=O)(=O)c2cccs2)C1 (configuration not stated)	5%	i
41	CC[C@]12c3[nH]c4cc(-c5ccco5)ccc4c3CCN1C(=O)[C@@H](CC(=O)NCc1ccco1)C[C@@H]2C(=O)N1CCN(C(=O)C2CC2)CC1	?	-28%
42	O=C(NCc1ccc2c(c1)OCO2)C1CCCN(C(=O)c2ccc(Cl)cc2)C1 (configuration not stated)	-16%	i
43	O=C(NCCCN1CCCC1)c1ccc2c(c1)N(Cc1ccccc1)CCS2	-12%	?
44	Cc1ccc(S(=O)(=O)N2CCC(N3CCC(C)CC3)CC2)cc1	-15%	-5%
45	CCN(CC)C(=O)[C@H]1C[C@H](CC(=O)NCC23CC4CC(CC(C4)C2)C3)C(=O)N2CCc3c([nH]c4cc(-c5ccco5)ccc34)[C@]12C	11µM*	?
46	CCCCOc1cccc(NC(=O)CSc2nncn2C)c1	-8%	-16%
47	COc1ccccc1CN1CCOc2ccc(C(C)(O)COc3ccccc3)cc2C1 (configuration not stated)	-10%	-15%
48	O=C(Nc1ccccc1N1CCOCC1)c1ccc(N2CCOCC2)c([N+](=O)[O-])c1	-9%	i
49	O=C(c1cc(-c2ccc(Br)cc2)on1)N1CCCCCC1	-11%	i
50	COc1ccc(CCCc2nnc(SCC(=O)NN)o2)cc1	4%	-9%
51	O=C(Nc1cc(C(=O)N2CCN(c3ccccc3O)CC2)ccc1Cl)c1cccs1	-9%	-4%
52	C[C@@H]1CN([C@@H](C)CO)S(=O)(=O)c2ccc(Br)cc2O[C@H]1CN(C)Cc1ccccc1F	?	-29%
53	Nc1c(C(=O)Nc2ccc(Cl)cc2)sc2nc3c(cc12)N1CCC3CC1	-29%	-25%
54	OC(COc1ccccc1Cl)CN1CCN(CC(O)COc2ccccc2Cl)CC1 (configuration not stated)	-30%	?
55	CCCN(Cc1ccccc1)C(=S)NC(=O)c1ccccc1[N+](=O)[O-]	-4%	-10%
56	CC(=O)NCC(=O)OCc1ccc([N+](=O)[O-])cc1	-7%	i
57	NS(=O)(=O)OC(CCc1ccccc1)C(Cl)(Cl)Cl (configuration not stated)	-29%	-26%
58	O=C(N/C(=C\c1ccco1)C(=O)N1CCCC1)c1ccccc1	-6%	-5%
59	O=C(CSc1nc2ccccc2s1)Nc1ccc2c(c1)oc1ccccc12	-15%	-2%
60	COc1ccc2[nH]c3c(c2c1)CCN1C(=O)C(CC(=O)NC/C=C(\C)CCC=C(C)C)C[C@H](C(=O)N(C(C)C)C(C)C)[C@@]31C (some centres not stated)	?	-20%

New compounds follow
cpd	Molecule	VACV Venus inh	Vaccinia mCherry
61	CC(C)N(CCNC(=O)C1CCC(=O)N1Cc1ccc(F)cc1)Cc1ccccc1 (configuration not stated)	-17%	nt
62	CC(C)(C)c1ccc(OCCC(=O)Nc2cccc(S(=O)(=O)N3CCCCC3)c2)cc1	?	?
63	COc1ccc(NC(=O)C2=Cc3cccc(OC)c3OC2)cc1	-12%	-9%
64	COc1ccc(C)cc1NC(=O)C(=O)NCCc1csc(-c2ccc(C)cc2)n1	-18%	-3%
65	O=C(CS(=O)(=O)c1cn(Cc2ccc(F)cc2)c2ccccc12)N1CCOCC1	-13%	i
66	Cc1cc(-c2ccccc2)cc(-c2ccccc2)[n+]1C	-14%	i
67	Cn1c(SCC(=O)NC2CCCCC2)nnc1-c1cc2ccccc2o1	-8%	i
68	NC(=O)c1ccc(-n2nnnc2SCC(=O)Nc2ccccc2-c2ccccc2)cc1	-23%	nt
69	COc1ccccc1[C@@H]1C(c2ccc(F)cc2)=NN(c2ccccc2)[C@H]1C(=O)N1CCOC1=O	-19%	i
70	CCN(CCNC(=O)c1ccc(C#N)cc1)c1cccc(C)c1	-19%	-19%
71	COc1ccc(CCN2CC(C(=O)NCCN3CCOC3=O)CCC2=O)cc1 (configuration not stated)	-1%	-5%
72	O=C(OCC(=O)N1CCc2ccccc21)c1ccc([N+](=O)[O-])cc1	-1%	-3%
73	C=CCn1c(Oc2cc(C)ccc2C)nc2c1c(=O)n(C)c(=O)n2C	-19%	-8%
74	CCN(CC)S(=O)(=O)c1cccc(C(=O)NC(C(=O)NC2=NCCS2)C(C)C)c1 (configuration not stated)	-33%	nt
75	COc1ccc(C(=O)CCN2CCN(c3ccccc3OC)CC2)cc1	-6%	-22%

Reformatted: results already given
#26 CCc1nc2ccc(C(=O)N3CCN(S(=O)(=O)CC)CC3)cn2c1N(CC)CCN(C)C
  VACV Venus inh = 7% | Vaccinia mCherry = i
#14 Cc1c(N)cc(N)cc1C(=O)O
  VACV Venus inh = 8% | Vaccinia mCherry = i
#72 O=C(OCC(=O)N1CCc2ccccc21)c1ccc([N+](=O)[O-])cc1
  VACV Venus inh = -1% | Vaccinia mCherry = -3%
#55 CCCN(Cc1ccccc1)C(=S)NC(=O)c1ccccc1[N+](=O)[O-]
  VACV Venus inh = -4% | Vaccinia mCherry = -10%

(list continues)
cpd	Molecule	VACV Venus inh	Vaccinia mCherry
76	COc1ccc(-c2nc3n(c(=O)c2C#N)CCCS3)cc1	-11%	nt
77	Cc1ccc(S(=O)(=O)N(C(=O)c2ccco2)c2cc3sc(=O)oc3c3ccccc23)cc1	2%	-15%
78	COc1ccc(-c2noc(N3CCC(C(=O)NCc4ccc(F)cc4)CC3)n2)cc1	-18%	i
79	COc1ccc(C(=O)COC(=O)CCn2c(C)csc2=O)c(OC)c1	-4%	-13%
80	COc1ccccc1NC(=O)c1ccccc1S(=O)(=O)c1ccc([N+](=O)[O-])cc1	-14%	i
81	CCOc1ccc(CNC(=O)CSc2nnc(C)c3c(C)n(-c4ccc(Cl)cc4)nc23)cc1	-6%	-17%
82	CCS(=O)(=O)N1CCCC(C(=O)NCCc2ccc(OC)c(OC)c2)C1 (configuration not stated)	-11%	nt
83	COc1ccc(CNC(=O)CN(C)Cc2ccccc2F)cc1OC	-9%	i
84	Cc1cccc(NC(=O)CSc2nc(-c3cccs3)cc(C(F)(F)F)c2C#N)c1	-23%	-20%
85	Cc1ccc2c(c1)[C@H]1[C@H](CO2)[C@H](c2ccccc2)[C@]2(C)C(=O)N(Cc3ccccc3)CC(=O)N12	-24%	-3%
86	Cc1cc(/C=C(/C#N)C(=O)Nc2ccc(Cl)cc2)c(C)n1-c1cccnc1	-15%	-9%
87	C=CCOc1ccc(/C=C/C(=O)OCc2csc(CC(=O)Nc3ccccc3C)n2)cc1	-9%	i
88	COc1ccccc1NC(=O)C(CC=C(Cl)Cl)C(C)=O (configuration not stated)	-7%	-12%
89	NC(=O)c1ccc(NC(=O)Cc2cccs2)cc1	-7%	i
90	COc1ccc(C(=O)Nc2c(N)nc(SCC(=O)N3CCC(C)CC3)[nH]c2=O)cc1	-12%	i
91	CCc1ccc(C2=NN(C(C)=O)C(c3ccco3)C2)cc1 (configuration not stated)	?	-28%
92	CCOC(=O)c1ccc(N2CCOCC2)c(NS(=O)(=O)c2ccc(F)cc2)c1	-5%	-13%
93	C=CCNC(=O)c1ccccc1NC(=O)Cc1ccccc1[N+](=O)[O-]	-10%	-13%
94	CCC(=O)c1cn(CC(=O)Nc2ccccc2)c2ccccc12	-19%	-20%
95	COc1ccc(-c2csc3nc(C)n(-n4cccc4)c(=O)c23)cc1OC	-20%	-23%
96	CCN(CC1CCCN(CCc2cccc(F)c2)C1)C(=O)c1ccc(CSC)o1 (configuration not stated)	-7%	-23%
97	CCOc1ccc(S(=O)(=O)Nc2ccc3c(c2)c(C(C)=O)c(C)n3S(=O)(=O)c2ccc(OCC)cc2)cc1	-21%	-23%
98	O=C(/C=C/c1ccco1)Nc1cccc2cccnc12	37%[activator]	i
99	CCCCC(c1nnnn1CC1CCCO1)N1CCN(Cc2ccccc2)CC1 (configuration not stated)	-14%	-24%
100	CC(C)CC(NC(=O)C(NC(=O)OC(C)(C)C)C(C)C)C(=O)N1CCCC1C(N)=O (configuration not stated)	-7%	nt
101	CC1(C)CC(=O)C2=C(C1)NC(SCC(N)=O)=C(C#N)C21CCCCC1	-27%	nt
102	Cc1cc(N2O[C@]34C=C[C@]25C[C@@H](O)CC[C@]5(C)C3CC[C@]2(C)[C@@H]([C@H](C)/C=C/[C@H](C)C(C)C)CC[C@H]24)no1 (some centres not stated)	-7%	-3%
103	CNCCc1cnc[nH]1	-11%	-1%
104	O=C(Nc1cccc(Cl)c1)c1ccc2nc(Cc3ccccc3)oc2c1	-23%	-21%
105	CCc1nn2c(=O)c(S(=O)(=O)Nc3ccc(OC)c(Cl)c3)c(C)nc2s1	-5%	-4%
106	O=C(Nc1ccc2c(c1)OCO2)c1cc(-c2ccccc2Cl)on1	1%	?
107	Cn1c(=O)c2ccccc2n(CC(=O)NC2CCCC2)c1=O	-8%	-21%
